Compound activity from PubChem BioAssay.
GLA inh pH 4.5 = blocks human alpha-galactosidase A at pH 4.5; AID 1467; purified enzyme, 4-MU-alpha-Gal fluorescence, pH 4.5; P06280; 230,000 tested, under 10 active; activity change, negative = inhibition, % at 105 µM; inconclusive = small, poorly fitted or top-dose-only inhibition, or a rising curve; inactive = flat fitted curve, though single readings scatter; no compound was filed as active;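 note: 0% = full activity with enzyme and -100% = basal without enzyme; dose as in the result columns while the protocol names 77 µM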
Rango complex inh = prevents formation of the Rango-importin beta complex. Q14974. 0.031% of 340,000 active. Potency, µM (top dose mostly 92.2 µM), inactives show at the top dose inhibition of complex formation. Rango CFP/YFP FRET sensor + importin beta, 45 min; active = rising FRET ratio curve, often small or poorly fitted; inconclusive = mostly compound fluorescence or quenching in the first reads; inactive = flat curves in all reads;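 note: potency is the fitted concentration of half-maximal effect; 0% = DMSO wells and 100% = buffer wells lacking importin beta; nearly all actives have a fitted effect of over 15% in size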
Target sequence (Q14974 whole entry, looked up): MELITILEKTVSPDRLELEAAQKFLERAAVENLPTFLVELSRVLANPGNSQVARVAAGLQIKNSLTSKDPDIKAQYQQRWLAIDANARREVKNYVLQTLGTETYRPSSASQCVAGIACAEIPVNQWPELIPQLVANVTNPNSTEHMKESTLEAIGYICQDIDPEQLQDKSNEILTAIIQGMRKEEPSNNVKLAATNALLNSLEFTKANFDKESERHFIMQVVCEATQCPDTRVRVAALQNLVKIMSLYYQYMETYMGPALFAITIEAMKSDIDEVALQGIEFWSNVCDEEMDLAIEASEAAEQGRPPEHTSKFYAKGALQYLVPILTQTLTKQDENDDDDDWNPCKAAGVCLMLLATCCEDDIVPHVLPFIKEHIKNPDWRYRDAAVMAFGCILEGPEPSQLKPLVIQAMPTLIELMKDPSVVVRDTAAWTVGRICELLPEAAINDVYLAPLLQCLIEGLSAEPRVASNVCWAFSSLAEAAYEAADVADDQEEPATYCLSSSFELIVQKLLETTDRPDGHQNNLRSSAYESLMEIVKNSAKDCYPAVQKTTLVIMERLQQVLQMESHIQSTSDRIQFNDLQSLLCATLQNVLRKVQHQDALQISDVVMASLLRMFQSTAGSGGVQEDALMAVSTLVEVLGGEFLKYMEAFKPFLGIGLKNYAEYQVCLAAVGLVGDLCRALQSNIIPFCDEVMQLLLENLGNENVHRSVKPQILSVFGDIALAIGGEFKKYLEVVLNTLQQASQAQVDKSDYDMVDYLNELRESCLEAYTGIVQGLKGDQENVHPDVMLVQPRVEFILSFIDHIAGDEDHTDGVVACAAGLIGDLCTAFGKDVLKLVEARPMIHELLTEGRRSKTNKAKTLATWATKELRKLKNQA
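Inhibition scored from the CFP 486 nm/YFP 530 nm FRET ratio 45 min after adding 0.125 microM importin beta to 50 nM Rango biosensor preincubated 5 min with compound (room temperature, PBS with DTT, Tween-20, BSA). No-importin wells as positive control.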
Rango release inh = inhibition of RanGTP-driven Rango-importin beta dissociation. O95149+P62826. Biochemical FRET Rango-importin beta, RanGTP-induced dissociation. Potency, µM (titrated, usually from 46.1 µM), for inactives: at the highest dose activity change, negative = inhibition. 0.071% of 340,000 active. AID 540253; active means falling FRET ratio curve, often poorly fitted, with flat reads before Ran was added; inconclusive means other falling curves, or compound fluorescence or quenching; inactive means flat or rising ratio curve;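 note: potency is the fitted concentration of half-maximal effect; % of control where 0% means no effect; nearly all actives have a fitted effect of over 45% in size; -100% = wells without RanGTP and RCC1; the record marks most hits as doubtful in a second field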
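Two FRET readings bracket the reaction: one 5 min after compound meets Rango–importin beta, another 45 min after RanGTP-RCC1 (0.6 uM Ran, 0.2 uM RCC1, 2 mM GTP) is added. Only the second defines inhibition.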
miR-21 FLuc = miR-21 reporter, rising signal. 340,000 tested, under 10 active. HeLa miR-21 FLuc reporter, luciferase, 48 h. Potency, µM (titrated, usually from 38.3 µM), inactives show at the highest dose reporter change, positive = more light; active = well fitted rising curve with a large enough effect; inconclusive = small, poorly fitted or top-dose-only effect; inactive = no such curve, though single readings can be large or run the other way;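 note: % of control where 0% means no effect; miR-21 action dims this reporter so a rising signal means less miR-21 action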
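Using DMEM plus 10% FBS, HeLa miR-21-FLuc cells are incubated with test compounds (final up to about 40uM) for 48 hours; firefly luciferase signal is then imaged following reagent-mediated lysis.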
* = called active by the depositor; ? = inconclusive; . = not tested or not shown; & = joins results of further samples. Some of the compounds tested; the hit share may differ from the screen's.

GLA inh pH 4.5	Rango complex inh	Rango release inh	miR-21 FLuc	molecule
3	3.0%	-1%	6%	C=CCN1C(=O)/C(=N/n2cnnc2)c2ccccc21
2	-0.5%	-17%	11%	CCCNC(=O)Cn1cnc2sc(C(=O)N3CCN(Cc4ccc5c(c4)OCO5)CC3)c(C)c2c1=O
.	-16%	-12%	-6%	CC1CCCCN1CCCNc1ccc(C(CC(N)=O)NC(=O)Cc2ccc(Br)cc2)cc1[N+](=O)[O-] (centres undefined)
4	-4.7%	-8%	1%	COCCNC(=O)c1ccc2c(=O)n(Cc3ccco3)c(SCC(=O)NC3CCCC3)nc2c1
.	0.6%	12%	.	N#CCCN(C(=O)COC(=O)c1ccc(S(=O)(=O)N2CCOCC2)cc1)c1ccccc1
-3	5.9%	-1%	-1%	COc1cc(/C=N/NC(=O)Cn2cnc3c2c(=O)n(C)c(=O)n3C)cc(OC)c1OC
-10	0.8%	0%	2%	CCOC(=O)Cn1c(=O)n(Cc2ccco2)c(=O)c2ccc(C(=O)NCCc3ccccc3)cc21
0	-1.0%	12%	-11%	NC(=O)NCc1ccc(C(=O)OCc2ccncc2)cc1
.	2.3%	-5%	.	CCN(Cc1ccccc1)C(=O)CN1C(=O)c2ccccc2S1(=O)=O
.	-2.0%	6%	.	CC1CCCC(NC(=O)CN2C(=O)NC(Cc3c[nH]c4ccccc34)C2=O)C1C (centres undefined)
.	-0.1%	13%	.	C#CCOCCOCCOCCNc1nc(N2CCN(C(=O)[C@H]([C@@H](C)CC)n3cc(CCC(=O)O)nn3)CC2)nc(N2CCN(C(=O)[C@H](CCCCN)n3cc(CC(C)O)nn3)CC2)n1 (some centres undefined)
-2	0.3%	-2%	0%	Cc1[nH]c2ccccc2c1C(=O)CSCC(=O)O
3	0.2%	-1%	-45%	O=C(N/N=C/c1cccc(F)c1)c1ccc(Cl)cc1
1	-4.2%	-3%	-9%	CCCCNC(=O)Nc1ccccc1C(=O)NCCC
-8	5.8%	-6%	1%	Nc1ncnc2c1ncn2CCN1CCOCC1
.	-1.7%	4%	.	COc1ccc(NC(=O)CN(C)C(=O)c2c(C)nn(-c3ccccc3)c2Cl)cc1
-16	2.0%	-13%	0%	CCCCn1nnnc1SCC(=O)NNC(=O)c1ccco1
.	2.3%	2%	1%	CCOc1ccccc1NC(=O)CCNS(=O)(=O)c1ccccc1
-2	0.8%	1%	-4%	Cc1cccc(OCCN2CSC(=S)N(C)C2)c1
.	-1.8%	-19%	-2%	CCN(Cc1ccccc1)C(=O)c1cccnc1
-6	2.2%	12%	12%	C/C(=N\NC(=O)c1ccco1)c1ccc(NC(=O)c2cccs2)cc1
-1	0.5%	7%	-2%	C/C(=C\C(=O)c1ccc(Cl)cc1)Nc1ccc(N2CCOCC2)cc1
6	2.5%	-8%	-42%	Cc1ccc(NC(=O)CNS(=O)(=O)c2cccs2)cc1F
.	1.6%	9%	-3%	CC(Sc1nc2c(N)ncnc2n1CCOc1ccccc1)C(=O)O (centres undefined)
5	0.6%	-2%	-17%	O=c1[nH]c(SCc2ccc(F)cc2Cl)nc2ccccc12
-18	-0.9%	-1%	-1%	CCOc1cc(/C=N/Nc2nc(N3CCCCC3)nc(N3CCCCC3)n2)ccc1OC(=O)c1ccco1
-5	-6.6%	5%	-42%	Cc1ccc(/C=N/NC(=O)c2cccs2)o1
11	1.4%	-6%	10%	O=C(NCc1ccco1)c1cc(-c2ccccn2)nc2ccccc12
.	0.0%	-12%	-23%	Nc1ccc(C(=O)N2N=C(c3ccccc3)CC2(O)C(F)(F)F)cc1 (centres undefined)
.	2.4%	34%	8%	CN(C(=O)CSC(=O)c1ccccc1)c1ccccc1
2	-1.0%	?	.	NCCNC(=O)c1ncsc1-c1cccc(F)c1
-5	-4.4%	-3%	-8%	COc1ccc(N(C(=O)c2ccco2)S(=O)(=O)c2cccs2)cc1
2	-0.7%	-4%	-2%	Cc1csc(-c2cnn(-c3ccccc3)c2NC(=O)c2ccc(C(F)(F)F)cc2)n1
5	?	-16%	-9%	Cc1ccc(Nc2nc3ccccc3nc2-n2nc(C)cc2C)cc1
-4	-2.8%	-14%	15%	COc1ccc(NS(=O)(=O)c2cc(NC(=O)c3cc(F)c(F)c(F)c3F)ccc2N2CCCC2)cc1
4	-2.1%	1%	-1%	CC(=O)Nc1nc(C)c(C(C)C)s1
-26	0.3%	-11%	-7%	COC(=O)C1CCN(c2c([N+](=O)[O-])cc(C(F)(F)F)cc2[N+](=O)[O-])CC1
15	0.2%	-1%	-5%	CCN(CC)C(=O)c1[nH]cnc1C(=O)Nc1ccc(OC)cc1
.	1.5%	33%	-3%	CCN(CC)CCCNC(=O)C1CCC(CNS(=O)(=O)c2c(C)cc(C)cc2C)CC1 (centres undefined)
.	-0.3%	-9%	-3%&-24%	CC1CCCN(C(=O)CCS(=O)(=O)c2cc3c(cc2Cl)NC(=O)CO3)C1 (centres undefined)
1	0.8%	-7%	-12%	COC(=O)c1c(-c2ccc(F)cc2)noc1N
.	1.3%	10%	-2%	COC(=O)c1ccccc1NC(=O)[C@@H]1CCC(=O)N1C1OC(=O)c2c1ccc(OC)c2OC (some centres undefined)
-6	-0.4%	-5%	24%	CCOC(=O)C1(N(CC)CC)Sc2cc(C)ccc2NC1=O (centres undefined)
-5	?	-11%	-13%	S=C(Nc1ccc2nsnc2c1)NC1CCCCC1
2	-1.9%	-25%	-4%	Cc1ccc(-n2c(C)cc(/C=N/NC(=O)c3ccncc3)c2C)cc1C
.	-0.1%	-17%	.	COc1ccc(CNC(=O)C(=O)NCC2OCCN2S(=O)(=O)c2ccc(OC)cc2)cc1 (centres undefined)
.	-1.2%	-16%	24%	COc1ccc(C)cc1S(=O)(=O)N1CCCC(C(=O)N2CCN(c3ccccc3)CC2)C1 (centres undefined)
5	-1.4%	2%	-2%	Cc1noc(NS(=O)(=O)c2ccc(N3C(=O)c4ccccc4C3=O)cc2)c1C

3 structures already listed, sorted by heavy-atom count, ascending.
GLA inh pH 4.5	Rango complex inh	Rango release inh	miR-21 FLuc	molecule
-6	-0.4%	-5%	24%	CCOC(=O)C1(N(CC)CC)Sc2cc(C)ccc2NC1=O (centres undefined)
15	0.2%	-1%	-5%	CCN(CC)C(=O)c1[nH]cnc1C(=O)Nc1ccc(OC)cc1
-26	0.3%	-11%	-7%	COC(=O)C1CCN(c2c([N+](=O)[O-])cc(C(F)(F)F)cc2[N+](=O)[O-])CC1

Following part:
GLA inh pH 4.5	Rango complex inh	Rango release inh	miR-21 FLuc	molecule
-3	.	.	-24%	Cc1nc2nc(-c3ccc(Cl)cc3)nn2c(C)c1Cl
.	-1.4%	0%	-18%	C/C(CC(=O)Nc1ccc(N(C)C)cc1)=N\NC(=O)c1ccccc1O
.	0.0%	-8%	1%	O=C(NCCN1CCN(Cc2ccccc2)CC1)c1ccc(CS(=O)(=O)c2ccc(Br)cc2)o1
-6	-2.3%	1%	-6%	O=C(CNC(=O)c1ccc(-c2ccccc2)cc1)Nc1ccc(S(=O)(=O)Nc2ncccn2)cc1
-7	1.8%	-2%	-56%	CSc1ccccc1NC(=O)COc1ccccc1C
-2	0.5%	13%	-16%	CN(C)C(=O)c1nnc(Cc2ccc(Cl)cc2)o1
.	-7.8%	-14%	-3%	COc1cccc(/C=N/NC(=S)NCCc2ccccc2)c1
-2	-0.6%	-3%	15%	CC(C)NC(=S)N=Nc1c(O)[nH]c2ccc(C(C)C)cc12
-3	?	-14%	-10%	CC(/C=N/n1c(-c2cccnc2)n[nH]c1=S)=C\c1ccco1
4	3.7%	-2%	-14%	CCOc1cc(C(=O)Nc2ccc3c(c2)OCO3)ccc1OCCOc1ccccc1Cl
5	-0.6%	-9%	0%	CN1C(=O)N(C)C2C1N(C)S(=O)(=O)N2C (centres undefined)
7	0.1%	8%	-30%	O=C(Nc1cccnc1N1CCOCC1)c1cc2ccccc2oc1=O

Reprinted from the part before: 5 entries, then new ones.
GLA inh pH 4.5	Rango complex inh	Rango release inh	miR-21 FLuc	molecule
-2	-0.6%	-3%	15%	CC(C)NC(=S)N=Nc1c(O)[nH]c2ccc(C(C)C)cc12
-3	?	-14%	-10%	CC(/C=N/n1c(-c2cccnc2)n[nH]c1=S)=C\c1ccco1
4	3.7%	-2%	-14%	CCOc1cc(C(=O)Nc2ccc3c(c2)OCO3)ccc1OCCOc1ccccc1Cl
5	-0.6%	-9%	0%	CN1C(=O)N(C)C2C1N(C)S(=O)(=O)N2C (centres undefined)
7	0.1%	8%	-30%	O=C(Nc1cccnc1N1CCOCC1)c1cc2ccccc2oc1=O
.	-2.2%	21%	.	CSc1nc(N)nc2c1ncn2CC(=O)NCc1ccccc1
-1	2.9%	1%	-21%	O=C(Nc1nnc(-c2ccc(Cl)cc2)o1)Nc1ccccc1F
.	0.2%	20%	-3%	CCOc1ccccc1C(=O)NC1CC2CCCC(C1)N2Cc1ccc(C)cc1 (centres undefined)
6	-0.3%	2%	-7%	COc1cccc(-c2cc(C(=O)NCc3ccc(Cl)cc3)no2)c1
.	-0.5%	?	.	COc1ccc(-c2cc(CCC(=O)N3CCN(c4cc(C)ccc4C)CC3)on2)cc1
.	?	-5%	.	COC(=O)C1C2CC(C(Br)C2Br)C1C(=O)O (centres undefined)
-6	-4.0%	-27%	-7%	NC(=S)N/N=C/c1ccc(-c2cc(Cl)c(Cl)cc2Cl)o1
-2	-2.7%	9%	-2%	N/C(CC(=O)NCCOc1ccccc1)=N\O
.	-0.1%	-4%	0%	Cc1ccc(NC(=O)CN2C(=O)S/C(=C\c3ccc(OCC(=O)O)c(Br)c3)C2=O)cc1
.	-1.6%	13%	.	CCN1CCN(c2ccc(S(=O)(=O)N3CCCCC3)cc2NC(=O)c2cccc(OC(F)F)c2)CC1
.	-5.4%	?	12%	Cn1c(=O)[nH]c(=O)c2c1nc(Br)n2Cc1cccc(Br)c1
.	-2.4%	0%	.	CC(OC(=O)CCCN=C1NS(=O)(=O)c2ccccc21)C(=O)c1ccccc1 (centres undefined)
20	-4.8%	-8%	-22%	CCCCNC(=O)c1ccc(/C=C2\Oc3ccccc3N(C)C2=O)cc1
2	1.7%	1%	13%	O=C(NNc1ccc(O)cc1)c1ccc(Br)cc1
.	4.4%	20%	1%	Cc1nn(S(=O)(=O)c2ccc(C(C)(C)C)cc2)c(C)c1S(=O)(=O)N1CCOCC1
.	-2.1%	-8%	19%	CCc1ccc2nc(N(CCCN(C)C)C(=O)c3ccc4c(c3)OCCO4)sc2c1
.	-2.9%	-20%	23%	CCOc1ccccc1C(=O)N/N=C/c1coc2ccc(Cl)cc2c1=O
.	-4.3%	11%	.	CC1CCCCN1CC(=O)Nc1ccc2c(c1)OCO2 (centres undefined)
.	-1.3%	-10%	-10%	Cc1cc(=O)n2nc(N3CCCC(C(=O)Nc4ccc(C)c(C)c4)C3)sc2n1 (centres undefined)
-5	-4.0%	28%	-44%	CCc1ccc(NC(=O)c2cnc3n(c2=O)CCS3)cc1
-5	-0.3%	2%	-41%	c1ccc(Nc2nc3ccccc3[nH]2)nc1
1	-1.8%	-10%	-5%	Cn1cccc1Cc1nnc(SCC(=O)Nc2ccc(F)cc2F)n1-c1ccc(F)cc1
-3	-1.1%	-10%	-3%	Cc1cccc(C(=O)N[C@H](C(=O)Nc2nc(C)cs2)C(C)C)c1
1	2.7%	18%	-26%	C/C(Cn1nc([N+](=O)[O-])cc1C)=N\NC(=O)c1cccc(Br)c1
-6	?	-10%	-55%	NS(=O)(=O)c1ccc(N/C=C\C(=O)c2cccc3ccccc23)cc1
3	-0.8%	18%	-55%	O=[N+]([O-])c1ccc(COc2ccccc2/C=N/O)cc1
.	-2.2%	1%	4%	COC(=O)C(Cc1ccccc1)NC(=O)CCc1c[nH]c2ccccc12 (centres undefined)
-2	0.0%	6%	-23%	Cc1ccc(CC(=O)N2CCN(c3ccccc3F)CC2)cc1
6	-2.2%	2%	-58%	CCN(CC)c1ccc(NC(=S)NC(=O)c2ccco2)cc1
.	-2.6%	-4%	.	Cc1nnc(NC(=O)C2CC(=O)N(c3ccc4c(c3)OCCO4)C2)s1 (centres undefined)
.	0.1%	?	-1%	Clc1ccc(CN2CCCCCC2)cc1Cl
.	-0.9%	-9%	.	COc1cccc(/C=N/NC(=O)c2c(-c3ccccc3)noc2C)c1OC
.	?	4%	.	COc1ccc(CN(C)C(=O)CNC(=O)c2cccs2)c(OC)c1
-5	-4.2%	4%	-1%	CC1Cn2c(nc(=O)c3c2NCN(CCc2ccccc2)C3)S1 (centres undefined)
